LANA-H2B inh: blocks KSHV LANA binding to histone H2A/H2B; hit rate 0.6% among 320,000; inhibition, % (concentration not given with the values); Q9QR71; cell-free LANA-H2A/H2B peptide, fluorescence polarization; in the data active = inhibition mostly above about 10%, no sharp cut-off; inactive = mostly below about 6.7%;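 also: stock transfer was 7.5 nL into about 10 µL; 0% = median of vehicle wells and 100% = median of positive control wells; one replicate is shown; the record names a cut of 25% in any replicate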
Calb FLC: affects C. albicans growth with fluconazole; C. albicans CaCi-2 (fluconazole-resistant clinical isolate) + fluconazole, Alamar Blue growth, 48 h; growth inhibition, % (test concentration not listed); hit rate 0.57% among 300,000; AID 1979;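 active = most replicates above 75%; inconclusive = exactly half above 75%; inactive = most below 75%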;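 also: all wells also contain fluconazole at 8 µg/ml as a sub-toxic cotreatment; 0% = median of DMSO wells and 100% = median of geldanamycin control wells; wells of about 8 µL received 7.5 nL stock; the first replicate is given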
Beta2AR agonist: agonists of human beta-2 adrenergic receptor inducing internalization. hit rate 0.43% among 340,000. response, % (concentration not given with the values). Am2.2-beta2AR cells, FAP receptor internalization, flow cytometry; reference of the scale not given here;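 active = response above a set limit, near 3 SD of response in nonfluorescent compounds, cut at about 42% in these data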;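 also: stock transfer was 100 nL into about 11 µL; a reference agonist was the positive control; negative values mostly stem from fluorescent compounds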
Target sequence (P07550 whole entry, looked up): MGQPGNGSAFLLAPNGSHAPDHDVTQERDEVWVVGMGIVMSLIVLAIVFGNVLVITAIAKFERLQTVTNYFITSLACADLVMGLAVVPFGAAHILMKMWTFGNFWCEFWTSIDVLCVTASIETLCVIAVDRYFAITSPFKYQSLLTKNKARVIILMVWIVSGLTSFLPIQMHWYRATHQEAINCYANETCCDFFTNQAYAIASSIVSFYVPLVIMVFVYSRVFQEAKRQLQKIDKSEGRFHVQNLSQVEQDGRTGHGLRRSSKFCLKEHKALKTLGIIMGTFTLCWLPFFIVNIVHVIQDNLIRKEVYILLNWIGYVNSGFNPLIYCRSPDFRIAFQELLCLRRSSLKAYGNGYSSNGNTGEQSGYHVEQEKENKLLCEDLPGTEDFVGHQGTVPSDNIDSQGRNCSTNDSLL
HNF4A DNA FP: change in binding of human HNF4 alpha to DNA | HNF4a-FITC DNA binding, fluorescence polarization, 1 h | P41235 | AID 1224865 | hit rate 0.3% among 360,000 | activity change, % at 10 µM; in the data active = activity change above about 30%, passing the limit was not always enough;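 also: controls were the assay level and a saturating level of protein; the project sought stronger binding though the title names inhibitors; some compounds called inactive have numbers as strong as hits; positive values seem to mean higher polarization but the record does not say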
Target sequence (P41235 whole entry, looked up): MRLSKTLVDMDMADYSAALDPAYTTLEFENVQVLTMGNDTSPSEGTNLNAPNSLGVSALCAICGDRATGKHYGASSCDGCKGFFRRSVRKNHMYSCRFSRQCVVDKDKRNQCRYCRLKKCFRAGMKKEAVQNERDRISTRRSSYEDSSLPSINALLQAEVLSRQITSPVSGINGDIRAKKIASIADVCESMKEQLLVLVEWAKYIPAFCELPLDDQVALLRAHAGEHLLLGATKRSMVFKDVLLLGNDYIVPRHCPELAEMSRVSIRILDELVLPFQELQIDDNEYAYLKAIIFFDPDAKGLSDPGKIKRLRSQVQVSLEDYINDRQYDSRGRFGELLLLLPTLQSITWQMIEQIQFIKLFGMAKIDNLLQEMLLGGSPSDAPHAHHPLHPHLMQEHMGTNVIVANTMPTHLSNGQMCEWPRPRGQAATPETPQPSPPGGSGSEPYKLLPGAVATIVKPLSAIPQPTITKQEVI
RanGTP-Impb inh: disruptors of Ran-importin-beta complex formation – biochemical, FRET, CFP-Ran, YFP-importin-beta, homogeneous, primary screen. cell-free CFP-Ran/YFP-importin-beta FRET ratio. inhibition, % (no concentration beside the values). AID 2216. hit rate 1.1% among 300,000;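 active = most replicates above 15%; inconclusive = exactly half above 15%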;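 also: 0% = DMSO wells and 100% = Ran loaded with GDP instead of GTP; wells of about 40 µL received 100 nL stock; the first replicate is given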
ALR H2O2 inh: blocks human ALR sulfhydryl oxidase activity | P55789 | purified ALR, DTT oxidation, H2O2 HRP-luminol luminescence | inhibition, % (concentration not given with the values) | hit rate 3.8% among 290,000;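 active = mean and each replicate at 75% or more; inconclusive = only one of the two met; inactive = neither met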;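 also: stock transfer was 7.5 nL into about 7.5 µL; 0% = neutral wells and 100% = wells with inactivated enzyme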
Target sequence (P55789 whole entry, looked up): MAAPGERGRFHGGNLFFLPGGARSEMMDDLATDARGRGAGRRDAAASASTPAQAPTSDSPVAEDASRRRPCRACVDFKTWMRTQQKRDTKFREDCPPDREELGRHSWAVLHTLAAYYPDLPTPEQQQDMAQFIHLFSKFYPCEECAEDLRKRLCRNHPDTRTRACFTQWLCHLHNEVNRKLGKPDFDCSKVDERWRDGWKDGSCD
Vif TR-FRET: HIV-1 Vif–A3G interaction blockers – biochemical, TR-FRET, GST-Vif 1-94, biotin-A3G peptide, dose response retest, primary screen (AID 1117319). TR-FRET GST-Vif / biotin-A3G peptide binding; higher % means a stronger effect; test concentration not given here; strong numbers were not always called active. inhibition, %, or IC50 in µM where a hit was titrated. hit rate 0.57% among 260,000;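 active = above the screen mean plus three standard deviations and confirmed in dose response; inconclusive = results disagree or hit not tested in dose response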;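 also: Vif residues 1-94 fused to GST binding biotinylated APOBEC3G peptide 110-148; 0% = full assay without inhibitor and 100% = GST in place of GST-Vif; retest series ran down from 100 µM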
The depositor's hits bear a star; ? = inconclusive; / = no result given; & = joins results of further samples.

SMILES	LANA-H2B inh	Calb FLC	Beta2AR agonist	HNF4A DNA FP	RanGTP-Impb inh	ALR H2O2 inh	Vif TR-FRET
CCOc1ccc(N(CC(=O)Nc2ccc(C)cc2)S(C)(=O)=O)cc1	-2.8	-2	-4	1.1	3.2	/	/
CCOC(=O)c1cc2c(ccn2C)n1Cc1ccc(Cl)cc1	-3.0	-15	3	-0.6	0.4	/	/
C/C(=N\NC(=O)C(=O)Nc1c(C)n(C)n(-c2ccccc2)c1=O)c1ccncc1	2.8	-9	1	4.7	4.4	-2	-18%
O=C(Nc1ccc(NC(=O)c2cccs2)cc1)c1cccnc1	7.6	-10	-18	2.5	?	-5	-4%
CC(C)(C)C(=O)Nc1c2c(nc3c1CCC3)CCCC2	-1.8	-20	-2	-3.2	4.7	-13	?
CCN(CC)Cc1nc2c(c(=O)[nH]1)C(CC)(CC)Cc1ccccc1-2	5.4	-4	-3	0.1	7.1	-4	/
O=C(NC1CCN(C(=S)NCCc2ccccc2)CC1)C1CC1	-2.7	-22	-5	-2.9	2.2	/	-2%
COc1cccc(N2CCN(S(=O)(=O)c3ccc4c(c3)oc(=O)n4C)CC2)c1	-1.9	0	-6	-2.1	1.5	3	/
C=CCOCCN(C)C1=NS(=O)(=O)c2ccccc21	-3.3	-16	8	-0.8	?	-12	6%
CCc1nnc(NC(=O)c2cc(S(=O)(=O)N(CC)CC)ccc2Cl)s1	-2.7	33	2	0.5	1.5	2	3%
CN(C(=O)c1cc(-c2ccc3c(c2)OCO3)on1)c1ccccc1	-8.3	-16	1	-5.0	-1.4	/	2%
Clc1ccc(CO/N=C/c2cccs2)cc1	5.3	6	-8	1.4	-19	0	-6%
COc1ccccc1NS(=O)(=O)c1ccc(/C=C/C(=O)N2CCN(C(C)=O)CC2)cc1	4.6	/	21	1.0	/	-3	-3%
O=C(COC(=O)c1ccc(S(=O)(=O)N2CCc3ccccc3C2)cc1)NC(=O)NCc1ccco1	-2.1	8	-1	-0.4	-0.6	-4	2%
COc1cccc(NC(=O)CCC2CCN(C(=O)c3ccc(C(C)=O)s3)CC2)c1	3.7	-1	-3	1.3	-0.5	-2	/
COc1ccccc1S(=O)(=O)Cc1ccc(C(=O)NC2CC2)o1	1.8	-1	6	6.5	0.3	0	/
Cn1c(=O)c2c(ncn2CC(=O)OCC(=O)Nc2ccc(Cl)cc2Cl)n(C)c1=O	-0.7	-19	3	1.6	/	-9	21%
CCN(CC(=O)NCCc1ccc(Cl)cc1)Cc1nc2ccccc2c(=O)[nH]1	-4.7	0	24	-4.8	2.6	-10	/
CC(C)C(NC(=O)c1ccccc1)c1nnc(SCC(=O)Nc2nccs2)n1C (configuration not stated)	6.1	23	/	-2.2	-3.1	-9	11%
Cc1ccc(S(=O)(=O)Nc2cccnc2)c(C)c1C	0.6	4	-1	2.0	-2.6	-4	4%
CCOC(=O)N1CCC(NC(=O)CCCC(=O)O)CC1	-1.3	7	-4	-0.1	3.0	-7	-2%
COc1ccc([C@H]2CC(=O)C=C(c3cccc(OCc4ccccc4)c3)C2)cc1	8.7	/	1	-0.1	/	-6	/
CCOC(=O)/C(C(N)=NC)=C(\O)c1ccccc1	0.4	-8	10	5.1	0.9	-1	1%
CCOc1ccccc1NC(=O)NNS(=O)(=O)c1ccc([N+](=O)[O-])cc1	5.0	3	4	-1.0	5.8	-15	/
CCOc1ccc(OCc2ccc(C(=O)OCc3ccccn3)o2)cc1	2.9	3	9	-0.9	-0.9	-14	12%
COC(=O)C1SCC2C(=O)N(Cc3cccc(C)c3)CC(=O)N21 (configuration not stated)	1.0	-10	-2	-1.6	?	-8	0%
O=C1N=C(N2CCOCC2)S/C1=C\c1cccnc1	0.4	-2	-6	-4.6	2.5	/	-5%
CN(C)S(=O)(=O)c1cccc(NC(=O)/C=C/c2ccccc2[N+](=O)[O-])c1	-7.5	1	4	-2.9	1.8	5	?
CC1CCCCN1S(=O)(=O)c1ccc(N(C(=O)c2cnccn2)C(C(=O)NC2CCCC2)c2cccs2)cc1 (configuration not stated)	8.3	3	-3	0.3	1.2	-2	/
CC(/C=C/c1ccco1)=N/NC(=O)c1ccccc1Cl	1.1	12	11	5.8	3.6	18	7%
CC(=O)c1ncnn1CC(=O)c1ccc(Cl)cc1Cl	-2.9	?	-13	-3.0	-2.5	4	-6%
CN(C)S(=O)(=O)c1cccc(COC(=O)c2cc([N+](=O)[O-])ccc2N2CCOCC2)c1	/	-6	8	-1.5	0.0	/	-5%
Cc1ccccc1C(=O)OC1CCCN(C)C1 (configuration not stated)	0.0	0	49*	-2.7	0.4	-4	/
CCCCNC(=O)CSc1nc2cc3c(cc2c(=O)n1CCCC(=O)NCCc1ccc(OC)c(OC)c1)OCO3	1.7	-23	-4	-3.6	6.2	/	29%
CC(C)c1ccc(C(O)c2cnc(C(C)C)n2C)cc1 (configuration not stated)	3.0	-1	1	2.4	4.3	-4	-5%
CCn1nc(C(=O)N2CCN(Cc3nc4ccccc4s3)CC2)c2ccccc2c1=O	-1.5	/	27	-0.4	/	/	/
COc1ccc(C(=O)Nc2ccccc2N2CCOCC2)cc1Br	-1.4	-9	-8	2.2	-4.3	-3	/
Cc1ccc([C@@H]2[C@@H]3C(=O)N(C)C(=O)[C@@H]3[C@@H]3C(=O)Nc4ccccc4C(=O)N23)cc1	-0.5	1	1	2.2	-0.8	-13	/
O=C1c2ccccc2C(=O)N1CCC1=CCCCC1	-3.0	-5	-1	-1.8	-2.3	-2	1%
Cc1ccsc1C1C=C(c2cccc(Br)c2)Nc2ncnn21 (configuration not stated)	9.9	-5	-7	-26	-58	46	5%&0%
O=C1NC2(CCCCCC2)C(=O)N1Cc1ccccc1	2.4	-8	2	-1.7	0.1	23	2%
O=[N+]([O-])c1cccc2nc(-c3ccccc3)c(-c3ccccc3)nc12	0.5	0	1	-0.1	2.6	-2	4%
CCCc1cc(=O)[nH]c(SCC(N)=O)n1	1.2	/	1	2.2	/	-7	10%
CCOC(=O)c1ccc(NC(=O)C2CCCN(S(=O)(=O)c3cnc[nH]3)C2)cc1 (configuration not stated)	1.9	-3	0	0.5	-1.2	95*	0%
C=CCn1c(O)c(N=Nc2ccccc2C)c2ccccc21	-2.6	-40	/	/	-2.2	-12	17%
CS(=O)(=O)N1CCC(C(=O)N2CCN(Cc3ccccc3)CC2)CC1	1.3	-2	-10	-0.7	2.6	0	-4%
O=C(CN1C(=O)c2ccccc2C1=O)Nc1ccccc1N1CCOCC1	-3.1	-3	1	0.6	1.3	-6	/
O=[N+]([O-])c1ccc2nonc2c1Nc1ccccc1	-1.7	25	-2	-0.2	-1.4	-11	/
S=c1[nH]nc(-c2ccc3ccccc3n2)n1-c1ccc2c(c1)OCCO2	12	32	9	1.9	2.5	90*	-7%
COc1ccc(OC)c2c(N3CC(C)OC(C)C3)cc(C(F)(F)F)nc12 (configuration not stated)	0.1	16	6	-1.4	?	-40	4%
Cc1ccc(NC(=O)CSCC(=O)NCCc2ccccc2)cc1	-0.4	-8	0	2.6	5.3	-1	-2%
Cc1ccc(N(C)S(=O)(=O)c2cccc(C(=O)Nc3ccc(N4CCOCC4)cc3)c2)cc1	7.3	/	8	0.2	/	/	10%
Cc1cccc(CN2C(=O)/C(=C\c3ccc(C(=O)NCCN4CCOCC4)cc3)Sc3ccccc32)c1	-3.1	-5	46*	2.2	6.5	-1	/
CC12CCCc3c(O)cc(=O)n(c31)-c1ccccc12 (configuration not stated)	-2.5	1	4	-4.2	2.5	8	0%
CN(CC(=O)NCCc1ccc(S(N)(=O)=O)cc1)CC(=O)Nc1cccc(F)c1	/	/	-8	1.9	/	/	-5%
CC(C(=O)N1c2ccc(F)cc2CCC1C)N1C(=O)c2ccccc2C1=O (configuration not stated)	-1.5	6	10	-0.5	6.9	-4	4%
COc1cc2c(cc1OC)C(c1cccs1)N(C(=O)c1cccc(S(=O)(=O)N(C)C)c1)CC2 (configuration not stated)	3.6	-9	0	1.1	4.9	-15	-5%
COc1ccc(N=c2scc(-c3ccc(OC)cc3)n2CCO)cc1	-6.0	-10	6	4.3	2.5	86*	>100µM*
C=CCSc1nc2ccccc2c(=O)n1Cc1ccccc1	-2.5	-1	-10	-7.4	?	-4	31%
COc1ccc(N2CC(NS(=O)(=O)c3ccc(F)cc3)CC2=O)cc1 (configuration not stated)	1.0	-1	3	3.2	-2.1	0	2%
Continued:
SMILES	LANA-H2B inh	Calb FLC	Beta2AR agonist	HNF4A DNA FP	RanGTP-Impb inh	ALR H2O2 inh	Vif TR-FRET
O=C(NCCCN1CCOCC1)c1ccccc1NS(=O)(=O)c1ccc(Br)cc1	-2.3	10	0	-1.5	2.7	-9	?
O=C(NNC(=O)c1ccncc1)c1ccccc1	1.4	1	-14	0.9	5.9	4	0%
CC(Nc1c([N+](=O)[O-])c(=O)oc2ccccc12)C(Cl)c1ccccc1 (configuration not stated)	1.8	-3	1	-0.8	1.3	20	11%
COc1ccc(CCNS(=O)(=O)c2ccc3c(c2)NC(=O)CS3)cc1OC	0.3	3	-7	4.7	2.2	-4	/
COc1cc(C2NC(=O)NC(C)=C2C(=O)OC2CCCC(C)C2)cc(Br)c1O (configuration not stated)	0.2	2	1	1.2	5.5	16	/
COCCn1cnc2c1c(=O)n(CC#N)c(=O)n2Cc1ccccc1	0.7	-22	2	1.7	6.3	0	/
Clc1ncccc1-c1nnn(-c2ccccc2)n1	-4.1	-14	-7	-2.3	2.1	/	/
CC(Oc1ccccc1)C(=O)Nc1cccc([N+](=O)[O-])c1 (configuration not stated)	-2.7	-4	1	2.8	-1.9	0	19%
COc1ccc(O)c(-c2cc(-c3cccs3)[nH]n2)c1	14	5	12	-0.6	0.2	21	12%
O=C(NN=Cc1cc(Cl)ccc1[N+](=O)[O-])c1ccco1	/	/	-22	9.5	/	/	-3%
O=C(CCc1nc2ccccc2c(=O)[nH]1)OCC(=O)c1ccc(C2CCCCC2)cc1	3.7	-12	4	10.0	2.7	-12	-6%
CC(=O)Nc1ccc(Nc2nc(-c3cc4ccccc4oc3=O)cs2)cc1	-0.1	10	8	4.8	2.5	3	/
O=C(CC1OC(=O)c2ccccc21)Nc1cc(Cl)ccc1N1CCOCC1 (configuration not stated)	-1.6	/	6	-1.0	/	/	/
Cc1cccc(CC(=O)Nc2ccon2)c1	-3.2	0	-13	-0.2	-1.3	1	/
CCCOc1ccc(-c2nnc(-c3ccncc3)o2)cc1	-0.9	?	-19	2.2	-2.9	-2	-4%
COc1cccc(/C(O)=C2/C(=O)C(=O)N(CCN(C)C)C2c2ccc(Br)cc2)c1 (configuration not stated)	-0.8	2	-10	-2.1	2.3	1	-8%
CCN(CC)C(=O)c1cc(Cl)ccc1NC(=O)c1ccco1	1.0	0	-10	-1.1	3.8	-9	4%
Cc1cc(C)c2c(Cn3ccnc3)cc(=O)oc2c1	1.2	-4	-8	-1.7	2.9	-9	-4%
Cc1c(C(=O)N2CCC(Cc3ccccc3)CC2)cccc1[N+](=O)[O-]	2.6	48	7	3.2	-0.3	-37	/
COc1ccc(S(=O)(=O)N(C)CC(=O)NCCC2=CCCCC2)cc1OC	-2.9	-6	2	-3.6	-4.3	-14	9%
Cc1ccc2c(c1)c1nnc(SCC(=O)Nc3ccccc3C(F)(F)F)nc1n2CC(=O)O	-1.3	-6	-1	0.7	3.3	-2	6%

Rewritten with two lines to a compound: entries from further up.
Values run as follows: LANA-H2B inh	Calb FLC	Beta2AR agonist	HNF4A DNA FP	RanGTP-Impb inh	ALR H2O2 inh	Vif TR-FRET
CC(=O)Nc1ccc(Nc2nc(-c3cc4ccccc4oc3=O)cs2)cc1
  -0.1	10	8	4.8	2.5	3	/
CCCOc1ccc(-c2nnc(-c3ccncc3)o2)cc1
  -0.9	?	-19	2.2	-2.9	-2	-4%
